# Source: PubChem BioAssay
# T cruzi inh = T. cruzi replication inhibition. T. cruzi beta-gal in NIH3T3, luminescence, 90 h. inhibition, % (test concentration not listed). hit rate 1.4% among 300,000. AID 1885;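 active = mean inhibition across valid replicates above about 55%, limit read from the data; inconclusive = mean below that limit but half or more replicates reach it; inactive = mean below it, under half of replicates reach it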;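 note: signal also drops with host cell toxicity which is not excluded here; 0% = plate median of DMSO wells and 100% = zero luminescence signal; higher percent means less beta-gal luminescence so fewer parasites; stock transfer was 50 nL into about 50 µL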
# Vif A3G = HIV-1 Vif–A3G interaction blockers – biochemical, TR-FRET, GST-Vif 1-94, biotin-A3G peptide, dose response retest, primary screen (AID 1117319). TR-FRET GST-Vif / biotin-A3G peptide binding; higher % means a stronger effect; test concentration not given here; strong numbers were not always called active. inhibition, %; hits with a dose series show IC50 in µM. hit rate 0.57% among 260,000;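 active = above the screen mean plus three standard deviations and confirmed in dose response; inconclusive = results disagree or hit not tested in dose response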;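 note: Vif residues 1-94 fused to GST binding biotinylated APOBEC3G peptide 110-148; 0% = full assay without inhibitor and 100% = GST in place of GST-Vif; retest series ran down from 100 µM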
# rRNA inh HTS = inhibits bacterial ribosomal RNA function over humanized ribosomes | GFP signal change (wild-type ribosome), % (concentration not given with the values) | hit rate 1.6% among 350,000 | E. coli WT GFP vs humanized-ribosome RFP mutants, fluorescence, 24 h; stronger effect = lower value; DMSO median 0, no signal -100;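 active = significant combined selectivity score with lowered wild-type GFP, culture density cut under 30%, mutant RFP and density less affected; inactive = any of these conditions unmet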; note: one replicate is shown; some compounds called inactive have numbers as strong as hits
# A1 inh = inhibitors of the anti-apoptotic protein A1, read as caspase activation; MEF A1-2A-BIM cells, Caspase-Glo 3/7 luminescence, 3 h; percent of clofoctol response, vehicle zero; caspase activation, % (test concentration not listed); hit rate 0.066% among 330,000; AID 2462;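 active = over half of replicate activation scores above 10%, or exactly half above 10 with the replicate mean above 10; inconclusive = replicate mean below 10 yet half the replicates above 10; inactive = over half of replicates below 10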;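 note: wells of about 30 µL received 50 nL stock; many hits fall short of the cut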
# Beta cell apopt = beta cell apoptosis inhibition; INS-1E cytokine-induced death, ATP luminescence, 48 h; percent of positive-control rescue, neutral wells zero; protection from apoptosis, % (concentration not given with the values); hit rate 0.8% among 300,000; AID 435005;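 active = all replicates at 75% or more, or half of them and the mean; inconclusive = half reach 75% but not the mean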;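 note: 0% = cytokine-treated negative control wells and 100% = positive control rescue; higher means more ATP so stronger rescue from cytokine killing; wells of about 40 µL received 100 nL stock; the first replicate is given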
# AF4-AF9 inh = blocks AF4 peptide binding to human AF9. AlphaScreen, biotin-AF4 peptide binding to FLAG-AF9. P42568. hit rate 0.47% among 350,000. AID 651704. inhibition, % at 10 µM;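 active = every replicate reaching a set inhibition limit, whatever the replicate mean, cut at about 25% in these data; inconclusive = mean inhibition reaches that limit but some replicates miss it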;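 note: 0% = plate neutral control median and 100% = total signal loss; the record names both 10 and 1 µM as test concentration; the first replicate is given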
# Target sequence (P42568 whole entry, looked up): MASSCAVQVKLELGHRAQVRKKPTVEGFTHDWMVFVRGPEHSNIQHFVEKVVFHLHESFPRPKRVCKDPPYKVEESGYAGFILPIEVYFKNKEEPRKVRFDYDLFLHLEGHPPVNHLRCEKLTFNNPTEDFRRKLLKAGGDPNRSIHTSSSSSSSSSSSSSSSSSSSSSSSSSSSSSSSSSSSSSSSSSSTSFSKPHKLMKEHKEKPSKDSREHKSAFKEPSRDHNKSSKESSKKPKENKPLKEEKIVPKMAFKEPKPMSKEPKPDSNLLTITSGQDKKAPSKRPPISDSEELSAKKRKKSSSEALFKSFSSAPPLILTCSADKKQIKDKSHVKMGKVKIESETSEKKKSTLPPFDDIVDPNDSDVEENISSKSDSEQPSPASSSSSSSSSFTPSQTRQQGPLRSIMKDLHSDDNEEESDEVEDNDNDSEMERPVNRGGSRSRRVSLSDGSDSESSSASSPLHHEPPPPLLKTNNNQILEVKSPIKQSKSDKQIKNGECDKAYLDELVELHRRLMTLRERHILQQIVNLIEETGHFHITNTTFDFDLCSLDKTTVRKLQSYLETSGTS
# Calb FLC = C. albicans growth modulation with fluconazole; C. albicans CaCi-2 (fluconazole-resistant clinical isolate) + fluconazole, Alamar Blue growth, 48 h; growth inhibition, % (test concentration not listed); hit rate 0.57% among 300,000; AID 1979;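 active = most replicates above 75%; inconclusive = exactly half above 75%; inactive = most below 75%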;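 note: all wells also contain fluconazole at 8 µg/ml as a sub-toxic cotreatment; 0% = median of DMSO wells and 100% = median of geldanamycin control wells; wells of about 8 µL received 7.5 nL stock; the first replicate is given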
# RanGTP-Impb inh = inhibitors of RanGTP-importin-beta interaction, primary screen, biochemical, FRET, CFP-Ran, YFP-importin-beta, homogeneous. inhibition, % (test concentration not listed). AID 2216. cell-free CFP-Ran/YFP-importin-beta FRET ratio. hit rate 1.1% among 300,000;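 active = most replicates above 15%; inconclusive = exactly half above 15%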;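 note: 0% = DMSO wells and 100% = Ran loaded with GDP instead of GTP; wells of about 40 µL received 100 nL stock; the first replicate is given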
# rRNA inh HTS OD600 = recorded beside rRNA inh HTS, whose call it bears; OD600 change, %; measured here: OD600 growth;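 optical density of the mix in the first replicate; 0 = DMSO median and -100 = no signal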
# rRNA inh HTS RFP = also measured in rRNA inh HTS; calls as there; RFP signal change, %; measured here: RFP humanized mutant strains;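 first replicate; 0 = DMSO median and -100 = no signal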
# * marks the source's active call; other numbers are inactive results; ? = inconclusive; / = not tested or not shown; & = joins results of further samples.
# Value order: T cruzi inh	Vif A3G	rRNA inh HTS	rRNA inh HTS OD600	rRNA inh HTS RFP	A1 inh	Beta cell apopt	AF4-AF9 inh	Calb FLC	RanGTP-Impb inh
O=c1c2ccccc2c(C=Nc2ccc(S(=O)(=O)Nc3ncccn3)cc2)c(O)n1-c1cccc(Cl)c1
 : -2	7%	1	2	4.8	-0.3	9	-9.7	40	-1.6
CCOC(=O)c1sc(=S)n(CC)c1NC(=O)C1CC1
 : -20	7%	/	/	/	-0.8	-8	/	-12	6.5
Cc1nn(CC(=O)Nc2ccc3c(c2)nc2n3CCOC2)c(=O)c2ccccc12
 : -1	18%	/	/	/	-1.2	-13	/	7	-1.0
CN(Cc1ccccc1)c1nc2c(c(=O)[nH]c(=O)n2C)n1Cc1ccccc1F
 : 8	/	-3	-4	-2.2	-1.1	11	-6.7	12	1.3
COC(=O)[C@H](CCSC)NS(=O)(=O)c1ccccc1Br
 : -12	/	1	1	-12	0.9	0	-2.4	-7	?
O=C(NCc1cccs1)C1CCN(c2nccs2)CC1
 : 8	22%	/	/	/	-0.3	-4	/	7	?
Nn1cnnc1SCC(=O)Nc1ccc2c(c1)OCCO2
 : -14	3%	5	4	-5.9	-0.4	-3	2.0	2	-1.7
O=C(CSCc1ccc(Cl)cc1)NCc1ccc2c(c1)OCO2
 : -25	?	/	/	/	1.0	-1	/	/	-1.3
O=C(O)c1ccc2c(=O)n3c(nc2c1)/C(=C/c1ccccc1Br)CC3
 : 1	/	-6	-7	1.2	0.0	3	0.8	4	-2.3
CCNCc1cc(Cl)cc(OC)c1OC(C)C
 : -3	/	/	/	/	0.3	-1	/	-1	3.9
S=C(NCCc1ccc(Cl)cc1)Nc1ccc(Cl)cc1Cl
 : 12	/	/	/	/	-0.1	-1	/	-2	-1.0
O=C(CSc1nnc(Cc2cccs2)n1Cc1ccco1)Nc1ccc(Cl)cc1Cl
 : 13	8%&-6%	/	/	/	-0.1	-2	/	-18	1.3
O=C(Cc1ccc(Cl)cc1)NCCN1CCCC1
 : -6	-5%	/	/	/	0.5	/	/	13	-0.3
Cc1cc(C)cc(NC(=O)Cn2nnc(C(=O)NCc3cccs3)c2N)c1
 : 13	/	4	11	0.6	0.5	0	0.9	15	-0.2
c1ccc2c(c1)CCN(c1ncnc3nc[nH]c13)C2
 : -3	-3%	0	6	-0.5	0.0	-9	-12	2	-1.4
Fc1ccc(CCNC(=S)Nc2ccc(F)c(Cl)c2)cc1
 : 14	-2%	-49	-81	-13	1.6	-4	0.9	-45	-1.4
CCc1nnc(NC(=O)C2CC(=O)N(c3ccc(C)cc3)C2)s1 (centres undefined)
 : -7	7%	/	/	/	0.4	-4	/	17	4.5
CCOC(=O)c1cc2c(N)c(C(=O)c3ccc(Br)cc3)sc2[nH]c1=O
 : -9	/	4	-11	4.3	?	-4	/	9	?
O=C(Nc1nnc(CCc2ccccc2)s1)c1cccs1
 : -6	6%	/	/	/	-3.7	0	/	11	-7.3
O=C(N1CCCCCC1)N1CCN(C(=O)N2CCCCC2)CC1
 : -13	-3%	/	/	/	0.9	1	/	16	2.3
Cc1ccc(OCC(=O)NCCNC(=O)c2ccccn2)cc1
 : 5	/	4	6	-1.5	0.6	3	0.1	-25	0.3
CC(C)(C)c1ccc(C(=O)NNC(=O)CCC(=O)Nc2ccccc2)cc1
 : -15	4%	7	9	6.7	0.4	-1	-13	-8	-1.4
O=C(Cc1cccc2ccccc12)Nc1nc(-c2cccc([N+](=O)[O-])c2)cs1
 : 3	10%	10	2	-0.6	?	-5	-1.1	-6	-2.1
O=C(COC(=O)c1cccc(F)c1)NCCC1=CCCCC1
 : /	-9%	-7	-13	0.3	1.4	5	-4.3	/	/
N#CC1=C(O)C(c2ccccc2)n2c1nc(=O)c1ccccc12 (centres undefined)
 : -4	3%	/	/	/	0.4	-3	/	6	2.6
CC(C)CCOc1ccc(C(=O)NCC(c2ccco2)N(C)C)cc1 (centres undefined)
 : 9	7%	-14	-9	1.0	-0.1	1	3.0	5	-2.4
Cc1sc(NC(=O)CCCC(=O)O)c(C#N)c1C
 : -3	18%	/	/	/	-0.8	1	/	-1	4.2
CCN(CC(=O)Nc1ccc(NC(C)=O)cc1)C(=O)COc1ccc2ccccc2c1
 : -8	3%	0	0	0.2	-0.7	-7	-0.3	-9	6.1
Cc1ccc(C2NC(=S)NC3=C2N2CCC3CC2)cc1 (centres undefined)
 : -9	-4%	/	/	/	0.6	-2	/	2	-0.1
N#C/C(=C\c1ccc[nH]1)S(=O)(=O)c1ccccc1
 : -15	-8%	-13	-4	-0.5	0.3	-10	-33	-20	2.2
CC(C)(C)c1ccc(-c2nnc(SCCN3C(=O)c4ccccc4C3=O)o2)cc1
 : -18	-3%	/	/	/	-0.5	-1	/	28	2.4
COc1ccc(C2=NCCNC(C(F)(F)F)=C2)cc1
 : -4	/	22	9	2.1	0.3	-1	-10	-23	-1.3
O=C1NN(c2cccc(Br)c2)C(=O)/C1=C/c1ccc(-c2cc([N+](=O)[O-])ccc2O)o1
 : 0	28%	/	/	/	0.5	11	/	1	-10
O=C(Nc1cccc(S(=O)(=O)N2CCCCC2)c1)c1cc([N+](=O)[O-])ccc1N1CCOCC1
 : 5	8%	-8	-3	-1.5	0.5	14	-12	0	-1.2
CCn1nc(C)cc1C(=O)NC1CCCc2c1cnn2-c1cc(F)cc(F)c1 (centres undefined)
 : -3	/	2	10	0.0	-0.4	14	-1.8	9	-2.9
CCOC(=O)CSc1nnc(CNC(=O)Cc2ccccc2)n1-c1ccccc1OC
 : /	-6%	3	1	-1.1	0.9	/	6.0	/	/
O=C(O)C(=O)/C(=C\c1ccc([N+](=O)[O-])cc1)c1ccc2ccccc2n1
 : -2	/	-3	4	7.2	-2.6	24	-3.4	45	9.2
CCOC(=O)Cc1csc(NC(=O)c2ccoc2C)n1
 : -6	10%	/	/	/	-15	-4	/	-9	/
CC1(C)CC(=O)C2=C(C1)N(CCN1CCOCC1)C1=C(C(=O)CC(C)(C)C1)C2c1cccc(Cl)c1
 : 11	20%	/	/	/	-0.6	-10	/	-6	111*
COCC(=O)NCCc1nc(-c2ccccc2)cs1
 : /	7%	/	/	/	-0.4	-6	/	-1	2.9
Cc1ccc(S(=O)(=O)NCC(=O)OCC(=O)N2CCc3ccccc32)cc1
 : 1	0%	-2	1	1.2	0.3	-6	/	-1	1.7
O=c1[nH]c2ccccc2n1CCCSc1cnc2ccccc2n1
 : 18	1%	/	/	/	-1.1	-3	/	26	8.0
O=C(COC(=O)c1ccccc1Br)Nc1nnc(-c2ccccc2)o1
 : 2	60%	-59	-77	-18	-0.4	/	0.9	44	?
CC(NC(=O)CSc1ncnc2nc[nH]c12)c1ccccc1 (centres undefined)
 : -23	-7%	10	11	0.1	0.5	-4	/	-2	?
O=C1CC(C(=O)NCc2ccccc2)C2(CCCC2)O1 (centres undefined)
 : -5	-1%	/	/	/	0.0	-2	/	7	-3.7
Cc1ccc([N+](=O)[O-])c2c1C(N1CCCC1)C(C)(C)O2 (centres undefined)
 : 15	/	-4	-5	-3.0	1.2	5	1.7	25	4.7
CC(C)(O)C(=O)NNC(=S)Nc1ccc(F)c(Cl)c1
 : -12	4%	0	12	-1.0	0.1	-11	-2.0	9	0.6
Oc1ccccc1CNc1ncc(Br)cc1Br
 : 24	5%	-50	-67	-13	-0.3	1	/	-4	-5.5
O=C(NN1CCOCC1)c1cccc(Cl)c1
 : -23	-1%	8	10	2.8	0.3	-2	-0.5	2	0.2
O=C(CCn1ccc2cc(S(=O)(=O)N3CCCC3)ccc21)NCc1cccc(F)c1
 : 2	-3%	-5	-1	-5.5	-0.4	-1	0.4	-7	-1.5
COc1ccc(N=C(N(C)C)P(=O)(N(C)C)N(C)C)cc1
 : -5	-4%&5%	6	18	-3.1	-0.3	-4	1.4	-3	-4.7
COc1cccc(C2=NOC(C(=O)NCc3cccnc3)C2)c1 (centres undefined)
 : -14	-10%	5	1	-0.7	2.7	1	-2.9	7	0.3
Cc1ccc(NC(=O)C2C3C=CC4(O3)C2C(=O)N(CCCN2CCCC(C)C2)C4C(=O)NC2CCCCC2)cc1 (centres undefined)
 : -4	/	8	4	0.0	-2.1	-2	2.8	-13	-0.7
Cc1cc(C)cc(C(=O)NCC(=O)OCc2cc([N+](=O)[O-])cc3c2OCOC3)c1
 : 0	/	-20	-25	-2.9	0.1	-7	2.7	?	0.5
Cc1ccc(CN2C(=O)CCC2C(=O)NCCCN2CCC(C)CC2)cc1 (centres undefined)
 : -3	1%	/	/	/	/	/	/	-4	-0.1
CCOC(=O)Nc1ccc2c(c1)nc(CN1CCOCC1)n2C
 : -5	0%	/	/	/	-0.4	-4	/	3	?
CC/C(=N\NC(=O)c1nnn(-c2nonc2N)c1CN(C)c1ccccc1)c1ccccc1
 : 6	/	2	10	0.4	0.2	-1	-19	/	?
CN(CC(=O)Nc1ccc(F)cc1)C(=O)COC(=O)/C=C/c1cccs1
 : -16	6%	2	5	0.1	0.2	-2	2.1	-8	-0.8
O=C(NNC(=O)c1cnccc1C(F)(F)F)c1ccc(Cl)cc1
 : -10	-3%	7	-12	1.7	0.6	-4	-2.2	-4	1.0
C1CN(CC23CC4CC(CC(C4)C2)C3)CCO1
 : -7	-5%	/	/	/	0.6	0	/	-12	-1.0

# Remaining list, next part:
# Value order: T cruzi inh	Vif A3G	rRNA inh HTS	rRNA inh HTS OD600	rRNA inh HTS RFP	A1 inh	Beta cell apopt	AF4-AF9 inh	Calb FLC	RanGTP-Impb inh
CCCSc1ncccc1C(=O)O
 : -8	-9%	16	15	5.7	0.5	-3	-3.5	3	-0.6
Cc1ccc(N2C(=O)CC(N3CCN(S(=O)(=O)c4ccccc4)CC3)C2=O)c(C)c1 (centres undefined)
 : -24	/	-4	-14	1.9	-1.1	-6	-12	2	0.6
CC1(C)NC(=O)N(CC(=O)N2CCN(c3cccc(C(F)(F)F)c3)CC2)C1=O
 : 5	-1%	11	4	-0.1	1.1	1	0.3	/	-3.7
O=C(OCC(=O)N1CCN(C(=O)c2ccco2)CC1)c1ccccc1C(=O)c1ccc(Cl)cc1
 : -6	10%	/	/	/	0.7	/	/	-13	-2.2
COc1ccc(-c2nn3c(-c4ccccn4)nnc3s2)cc1OC
 : -18	13%	/	/	/	-0.1	2	/	3	1.4
Cc1cc(C)cc(NC(=O)Nc2ccc(-n3ccc(C(F)(F)F)n3)cc2)c1
 : 9	-5%	-2	1	-1.5	0.4	30	1.2	4	-2.4
COC(=O)c1c(NC(=O)CN2CCN(c3ccccc3Cl)CC2)sc(C)c1C
 : 19	/	/	/	/	1.1	-3	/	8	0.1
COC(=O)[C@H](C)NC(=O)NC1CCN(Cc2ccccc2)CC1
 : 10	-2%	/	/	/	2.3	4	/	-1	3.7

# This is a subset, so the mix of outcomes need not match the whole.
